GIV Gai3 FP = inhibitors of GIV GBA-motif binding to rat Galpha-i3; P08753; Galpha-i3/FITC-GIV peptide fluorescence polarization, 90 min; hits give low values; scaled: aluminum fluoride 0%, vehicle 100%; percent of control (FP), % (test concentration not listed); 0.42% of 210,000 active;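 active means replicate mean at 85% of control or lower, very high polarization wells dropped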;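 further: wells of about 15 µL received 100 nL stock; the first replicate is given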
Target sequence (P08753 whole entry, looked up): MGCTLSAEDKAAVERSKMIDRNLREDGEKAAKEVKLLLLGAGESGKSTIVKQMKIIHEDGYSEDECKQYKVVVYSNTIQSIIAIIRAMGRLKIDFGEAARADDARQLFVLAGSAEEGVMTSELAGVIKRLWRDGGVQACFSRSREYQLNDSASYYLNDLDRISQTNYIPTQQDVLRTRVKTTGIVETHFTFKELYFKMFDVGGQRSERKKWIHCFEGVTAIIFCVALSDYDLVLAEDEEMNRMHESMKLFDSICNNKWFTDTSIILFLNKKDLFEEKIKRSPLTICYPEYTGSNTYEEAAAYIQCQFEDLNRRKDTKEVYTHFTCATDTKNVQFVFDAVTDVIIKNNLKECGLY
Sa growth 42C = S. aureus growth inhibition | relative growth, % (concentration not given with the values) | 0.53% of 170,000 active | S. aureus RN4220 growth, OD600, 20 h, 42 °C; hits give low values;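 active means growth at 42 °C up to 50% and 20 or more points under that at 30 °C, or under 10% at both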;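 further: 300 nL library stock went into each well; scaled to the means of positive and negative controls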
HCMV UL50-53 inh = cytomegalovirus nuclear egress complex inhibition | 0.15% of 190,000 active | inhibition, % (no concentration beside the values) | HTRF UL50-UL53 interaction, normalized percent inhibition;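 active means both replicates at 50% or more, plus weaker picks with an unusually low signal ratio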;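 further: stock transfer was 100 nL into about 20 µL; 0% = negative control wells and 100% = wells with untagged competitor protein; inactives centre near -12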
Sa growth 42C second temp = also measured in Sa growth 42C; calls as there; relative growth, %; measured here: growth at 30 °C;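 optical density after 20 h as mean of two plates; 100% = untreated growth and lower means inhibition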
* marks the source's active call; other numbers are inactive results; . = not tested or not shown; & = joins results of further samples. Random draw from the library. Share with any hit: about 0.79%.

SMILES	GIV Gai3 FP	Sa growth 42C	Sa growth 42C second temp	HCMV UL50-53 inh
O=c1[nH]c(O)c(C(c2ccc(F)cc2)N2CCCC2)c(=O)[nH]1 (stereo unspecified)	94.1	131.2	86.6	-1.8
Cc1ccc(-c2noc(CCC(=O)Nc3nnc(CC(C)C)s3)n2)c(=O)n1C(C)C	106.2	.	.	-30.9
COC(OC)C1(C)NC(=O)c2ccccc2N1 (stereo unspecified)	.	102.5	89.3	-8.9
CCOc1cc(-c2noc(-c3ccccc3)n2)ccc1OCC(=O)Nc1nc(C(C)C)cs1	110.1	.	.	-10.4
COc1cccc(Oc2ccc(NC(=O)c3cc4cc(Br)ccc4o3)cn2)c1	115.4	.	.	-7.7
CCOC(=O)c1ccccc1NC(=O)c1sc2nc3n(c(=O)c2c1C)CCCCC3	94.7	93.7	93.5	-8.0
CCOc1ccccc1CN(CCc1ccc2c(c1)OCO2)Cc1cccc(OC)c1OC	106.9	101.2	79.7	-1.0
Cc1nc(Nc2ccc(NC(=O)CC(C)C)cc2)cc(N(C)C)n1	101.6	.	.	-20.8
OC(COC1=NCNc2cc(Cl)ccc21)c1ccc(F)cc1 (stereo unspecified)	101.7	100.4	92.4	-14.9
O=C1Nc2ccccc2O/C1=C\c1ccc(C(=O)NCCN2CCOCC2)cc1	104.8	107.1	95.5	-42.6
CCC(C)N(C(=O)CSc1nc2ccccc2c(=O)n1-c1ccccc1)C1CCS(=O)(=O)C1 (stereo unspecified)	.	112.5	98.3	6.6
Cc1c(/C=N/O)c2ccccn2c1C(=O)c1ccc(F)cc1	.	76.5	82.2	-65.4
O=C(NC12CC3CC(CC(C3)C1)C2)N1CCC(O)(c2ccc3c(c2)OCO3)CC1	96.9	90.5	81.3	4.9
CC(Sc1nnnn1Cc1cccs1)C(=O)Nc1ccc2c(c1)OCCO2 (stereo unspecified)	.	107.7	70.5	-0.6
O=C(CSc1ncccc1C(F)(F)F)Nc1ccc(C(F)(F)F)cc1	99.9	104.7	92.0	5.2
Cn1c(CSc2cccs2)nnc1SCc1ccccc1	103.0	94.7	81.0	-9.4
O=C(Nc1nnc(-c2ccc(Cl)cc2Cl)s1)c1ccc(S(=O)(=O)N2CCCC2)cc1	103.3	.	.	12.3
O=C(NCCc1csc(-c2cccc(F)c2)n1)C(=O)Nc1cc(F)ccc1F	103.4	98.3	89.5	.
Cc1ccc2cccc(NC(=O)c3cccc4c(Br)cccc34)c2n1	98.3	94.0	99.7	1.5
O=C(Cn1c(-c2ccccc2)noc1=O)NCc1ccccc1	101.0	113.4	78.3	-1.2

Ordered by count of non-hydrogen atoms (lowest first): six of the compounds above.
SMILES	GIV Gai3 FP	Sa growth 42C	Sa growth 42C second temp	HCMV UL50-53 inh
O=C(Cn1c(-c2ccccc2)noc1=O)NCc1ccccc1	101.0	113.4	78.3	-1.2
Cc1nc(Nc2ccc(NC(=O)CC(C)C)cc2)cc(N(C)C)n1	101.6	.	.	-20.8
CC(Sc1nnnn1Cc1cccs1)C(=O)Nc1ccc2c(c1)OCCO2 (stereo unspecified)	.	107.7	70.5	-0.6
COc1cccc(Oc2ccc(NC(=O)c3cc4cc(Br)ccc4o3)cn2)c1	115.4	.	.	-7.7
O=C(NC12CC3CC(CC(C3)C1)C2)N1CCC(O)(c2ccc3c(c2)OCO3)CC1	96.9	90.5	81.3	4.9
CCC(C)N(C(=O)CSc1nc2ccccc2c(=O)n1-c1ccccc1)C1CCS(=O)(=O)C1 (stereo unspecified)	.	112.5	98.3	6.6

Continued:
SMILES	GIV Gai3 FP	Sa growth 42C	Sa growth 42C second temp	HCMV UL50-53 inh
Cc1cc2oc(=O)cc(CSc3nnc(-c4ccoc4C)n3C)c2cc1C	.	91.2	94.8	-11.5
Cc1nc(NC(=O)CSc2ccc3c(c2)OCCO3)c(Cl)cc1Cl	.	90.5	99.8	-6.5
O=C(Cn1nc(C(F)(F)F)c2c1CCCC2)Nc1ccc(Cl)cc1	94.1	100.8	93.1	-31.3
Cc1cc(C)c(/C=C(\C#N)S(=O)(=O)c2ccccc2)[nH]1	104.3	101.2	74.6	-12.1
COC(=O)c1ccc(NC(=O)Nc2nnc(N(C)C3CCCCC3)s2)cc1	102.4	112.5	95.3	-13.7
O=C(CNS(=O)(=O)c1ccc(Cl)cc1)NN=C1CCCCC1	103.4	105.0	85.6	-11.8
CCc1ccc2oc(-c3cc(N=Cc4ccccc4O)ccc3O)nc2c1	.	94.5	91.0	-7.4
CCOC(=O)c1c(-c2ccccc2)oc2cc(Br)c(OC(=O)c3ccco3)cc12	96.7	.	.	-16.4
Cc1cc(Cl)ccc1OCC(=O)Oc1ccc2c(c1)OCO2	.	118.1	83.3	-23.1
Cc1ccc(CN2C(=O)CSc3ccc(C(=O)NCC4CCCO4)cc32)cc1 (stereo unspecified)	98.8	103.8	80.6	.
NNC(=O)c1ccncc1	106.6	84.2&101.7	81.5&95.2	-37.8&-4.4&9.2&-12.8&-47.2
COc1ccc(NC(=O)CN2CCN(Cc3ccccc3)S2(=O)=O)c(OC)c1	108.1	113.2	98.0	.
Cc1onc(-c2ccccc2Cl)c1C(=O)Nc1cccc2nsnc12	106.0	92.8	97.3	12.1
Cc1nc(-c2ccc(C)c(S(=O)(=O)N3CCC(C(=O)N4CC=C(c5ccccc5)CC4)CC3)c2)no1	102.4	.	.	-7.6
COc1ccc(NC(=O)C(C)C)cc1CN1CCn2c(nc3ccccc32)C1	95.7	.	.	-4.8
COC(=O)c1cc(C)sc1NC(=O)CN1CCN(Cc2ccccc2)CC1	96.9	97.1	98.4	-21.0
CCOc1cc(C2C3=C(CC(C)(C)CC3=O)NC3=C2C(=O)CC(C)(C)C3)cc(Br)c1O	102.3	93.0	83.7	-9.7
COc1ccc(Nc2nc(C(=O)NCc3ccccc3)cs2)cc1	.	100.8	83.1	-0.8
Cc1ccc(-n2c(=O)c3cccnc3n2CC(=O)NCc2ccccc2Cl)cc1C	102.2	114.3	75.0	-31.8
CN1CCN(C(=O)C2CCN(S(C)(=O)=O)CC2)CC1	103.6	95.1	70.5	-6.3
O=C(Nc1ccc2nc3c(=O)[nH]c(=O)[nH]c3nc2c1)C(F)(F)F	-15.9*	81.3	71.2	.
CCOC(=O)c1ccccc1Nc1cc(C)nc2nc(-c3ccco3)nn12	106.6	94.5	59.2	.
Cc1ccc2c(c1)-c1onc(C(=O)N3CCN(c4cccc(C)c4C)CC3)c1CO2	106.2	106.9	108.8	.
Cc1ccccc1Nc1nn2c(=O)c3ccc(C(=O)NCCC4=CCCCC4)cc3nc2s1	102.8	80.9	93.1	.
CCOC(=O)Cc1ccc(NC(=O)N2CC(CC)Oc3ccccc32)cc1 (stereo unspecified)	102.7&101.1	99.1	101.3	-13.9&-10.3
Cc1ccc2[nH]c3c(=O)n(CCCN4CCCC4)cnc3c2c1	107.6	120.4	97.7	1.4
Cc1ccc(-n2nnc(-c3nc(-c4ccccc4)no3)c2C)cc1	107.9	.	.	-31.0
Cc1ccc(NC(=O)C2=Cc3cc(C)ccc3OC=C2)cc1	101.3	.	.	-2.9
CCC(C)NC(=O)c1nc(-c2nn(-c3ccccc3)c(=O)n(C)c2=O)no1 (stereo unspecified)	99.9	.	.	-132.0
CC(C)CC1Nc2ccc(C(=O)NCC3COc4ccccc4O3)cc2NC1=O (stereo unspecified)	97.9	83.3	89.9	-15.3
O=c1cc(N2CCN(c3ccccc3)CC2)[nH]c(=O)n1-c1ccc(Br)cc1	98.2	92.4	89.3	-8.9
NNC(=O)COc1ccccc1Cc1ccccc1	.	109.8	103.5	-9.0
N#C/C(=C\c1[nH]c2ccccc2c1O)C(=N)N1CCOCC1	-18.2*	85.1	52.1	.
CC(C)Sc1n[nH]c(=O)n1-c1ccccc1	105.3	93.7	93.1	-3.3
CN1CCN(C(=O)c2c(Cl)nc3sccn23)CC1	.	79.1	98.0	3.5
COC(=O)c1ccc(Cl)cc1NC(=O)N(Cc1ccc(OC)cc1)C1CCN(C(C)=O)CC1	102.5	91.7	69.8	.
O=C(Cn1nc(C(=O)O)c2ccccc2c1=O)NC1CCCC1	.	91.7	90.3	-19.1
O=C(NCc1ccccc1)c1cnc2sc(N3CCCC3)nn2c1=O	104.6	91.3	91.9	.
Cc1ccc(N(CC(=O)Nc2ccc(C)cc2C)S(=O)(=O)c2c(C)noc2C)cc1	107.7	77.2	83.3	-21.7
O=C(Nc1cccc(C(F)(F)F)c1)c1ccc2c(c1)nnn2C1CCCC1	112.1	97.0	94.2	.

Shown as comma-separated lines: entries from further up
mol,GIV Gai3 FP,Sa growth 42C,Sa growth 42C second temp,HCMV UL50-53 inh
CCC(C)NC(=O)c1nc(-c2nn(-c3ccccc3)c(=O)n(C)c2=O)no1 (stereo unspecified),99.9,.,.,-132.0
CC(C)CC1Nc2ccc(C(=O)NCC3COc4ccccc4O3)cc2NC1=O (stereo unspecified),97.9,83.3,89.9,-15.3
O=c1cc(N2CCN(c3ccccc3)CC2)[nH]c(=O)n1-c1ccc(Br)cc1,98.2,92.4,89.3,-8.9

Further records follow:
SMILES	GIV Gai3 FP	Sa growth 42C	Sa growth 42C second temp	HCMV UL50-53 inh
COc1ccc(Cl)cc1NC(=O)Cn1c(=O)n(Cc2nc(C)no2)c(=O)c2ccccc21	104.3	73.6	94.6	.
CC1Cc2cc(S(=O)(=O)CCC(=O)Nc3ccc(Cl)cc3F)ccc2N1C(=O)C1CC1 (stereo unspecified)	102.5	130.9	89.4	.
CN(C)S(=O)(=O)c1ccc(C(=O)Nc2cc(C(F)(F)F)ccc2N2CCOCC2)cc1	.	103.9	103.2	-12.7
CCOc1ccc(-c2cc3nc(C4CCN(C(=O)OC(C)(C)C)CC4)c(C(=O)Nc4cccc(C(F)(F)F)c4)cn3n2)cc1	101.8	105.7	90.4	-16.2
Cc1ccc(CSc2nc(=O)n(Cc3ccccc3)c3c2CCC3)cc1	105.8	.	.	0.5
Cc1ccc(S(=O)(=O)Nc2ccc3oc(C)c(C(=O)NN)c3c2)cc1	98.9	91.7	81.0	.
CCC(=O)Nc1ccccc1C(=O)O	104.3	98.6	82.5	-27.6
COc1cc(=O)n(-c2ccc(C)cc2)nc1C(=O)Nc1ccc(-c2nc3ccc(C)cc3s2)cc1	111.7	.	.	-10.1
CC1CCCC(NS(=O)(=O)c2cccs2)C1C (stereo unspecified)	106.2	112.0	75.7	-0.4
Cc1ccc(Cl)cc1NC(=O)c1cc(-c2ccc3c(c2)OCCO3)on1	101.1	102.9	74.5	-12.3
Cc1ccc(S(=O)(=O)NCCn2c(-c3ccccc3)nc3cccnc32)c(C)c1	107.0	.	.	-24.0
Cc1cc(C(=O)CSc2nnc(-c3ccc4c(c3)OCO4)o2)c(C)n1C1CCS(=O)(=O)C1 (stereo unspecified)	.	90.7	87.6	-13.5
O=C(O)C1CN(C(=O)c2ccccc2)c2cc(Cl)ccc2O1 (stereo unspecified)	100.1	89.4	93.3	-8.4
CC(C)C(C(=O)O)n1c(-c2cccs2)n[nH]c1=S (stereo unspecified)	.	76.5	93.4	-11.7
OCC1CCCCCN1 (stereo unspecified)	99.3	101.0	75.7	-12.0
CCN(CC)C(=O)Cc1noc2ccccc12	103.8	114.4	89.9	.
COC(=O)c1ccccc1NC(=O)c1ccc2c(c1)CCCN2S(=O)(=O)c1ccc(Cl)cc1	104.6	.	.	-6.9
CC1CC(=O)C=C(O)C1C(=O)OC(C)(C)C (stereo unspecified)	100.2	106.4	96.8	-6.7
Cc1c(C(=O)OCC2CCCCC2)[nH]c2c1C(=O)CC(c1ccc(Cl)cc1)C2 (stereo unspecified)	103.8	102.2	89.3	-6.8
O=C(NCc1ccccn1)c1ccc2nc(N3CCCCC3)sc2c1	105.7	124.1	93.0	.
COc1cccc(-c2nn3c(Cn4cnc5ccccc54)nnc3s2)c1	102.3	93.7	77.9	-17.5
CCOC(=O)c1sc(NC(=O)c2nc(S(=O)(=O)CC)ncc2Cl)c(C(=O)OCC)c1C	106.2	.	.	29.2
Cc1[nH]c(C(=O)N2CCC(CC(=O)N3CCCCC3)CC2)c(C)c1C(=O)OC(C)C	106.7	.	.	-1.1
CCN(CC)C(=O)Cn1c(=O)sc2ccccc21	100.0	96.4	83.4	-10.6
Oc1c(-c2nc3ccccc3s2)sc2ncccc12	.	121.5	87.1	-5.0
COc1cc2c(cc1OC)C(COc1ccc3c(C)cc(=O)oc3c1)N(C(=O)CC(C)C)CC2 (stereo unspecified)	100.9	91.0	94.9	-4.1
Cc1ccccc1N(CC(=O)NC1CCCC1)C(=O)c1csnn1	102.9	110.3	106.0	8.1
Cc1ccc(F)cc1NC(=O)CCc1c(C)nn(-c2ccc(N3CCCCC3)nn2)c1C	98.9	68.0	90.4	.
Cn1c(=O)c2c(n3c4ccccc4nc13)NC(=O)CC2c1cccc(Cl)c1 (stereo unspecified)	109.3	99.7	79.8	.
CC1(C)Cc2ccccc2C(=NC(Cc2c[nH]c3ccccc23)C(=O)O)N1 (stereo unspecified)	.	72.6	95.4	-5.2
CCc1ccc(-n2nc(CO)c(C(=O)NCCc3ccccc3)n2)cc1	100.0	100.2	89.0	-16.2
CC(C)N(C(=O)CSc1n[nH]c(-c2cccs2)n1)C(C)C	.	109.2	91.5	-0.8
CN(C)c1ccc(/C=c2\s/c(=C(/C#N)C(=O)NCCN3CCOCC3)n(Cc3ccco3)c2=O)cc1	.	93.0	82.1	-88.4
Cc1cc(=O)n(Cc2ccccc2)c2c1c(C)nn2-c1ccccc1	97.5	84.4	74.6	.

Assay outcomes as filed in PubChem BioAssay.
